RE007 growth inh: qHTS Assay for Inhibitors of the HIV-1 protein Vpr; S. pombe RE007 Vpr strain, BacTiter-Glo ATP luminescence, 24 h; control for the full effect not named in the record; Potency, µM (series often up to 92.2 µM), for inactives: top-dose activity change, negative = less growth; actives 0.21% (n = 360,000); active = well fitted falling curve with a large enough effect; inconclusive = small, poorly fitted or top-dose-only effect; inactive = no such curve, though single readings can be large or run the other way;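 note: % is set by controls: 0 for no effect and ±100 for the full control effect; nearly all actives have a fitted effect of over 50% in size; the assay follows cell death caused by Vpr and the record does not say whether a fall means rescue or toxicity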
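Fission yeast RE007 carrying one integrated HIV-1 vpr copy, seeded at OD 0.01 in PMG+AL medium with 23 nL pinned compound. Grown 24 h at 30 degrees; viability read by BacTiter-Glo luminescence after 5 min.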
Cruzain inh Det: qHTS Assay for Promiscuous and Specific Inhibitors of Cruzain (with detergent); Cruzipain (Trypanosoma cruzi), P25779; purified cruzain, Z-FR-AMC fluorescence, 0.01% Triton; AID 1478, 2009; Potency, µM, for inactives: max response, negative = inhibition, hits mostly inhibitors; actives 0.43% (n = 200,000);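 note: plate controls were neutral wells for no effect and buffer without enzyme for full effect; nearly all actives have a fitted effect of over 40% in size; top concentration of the series not given in the record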
Target sequence (P25779 123-467 limits assumed): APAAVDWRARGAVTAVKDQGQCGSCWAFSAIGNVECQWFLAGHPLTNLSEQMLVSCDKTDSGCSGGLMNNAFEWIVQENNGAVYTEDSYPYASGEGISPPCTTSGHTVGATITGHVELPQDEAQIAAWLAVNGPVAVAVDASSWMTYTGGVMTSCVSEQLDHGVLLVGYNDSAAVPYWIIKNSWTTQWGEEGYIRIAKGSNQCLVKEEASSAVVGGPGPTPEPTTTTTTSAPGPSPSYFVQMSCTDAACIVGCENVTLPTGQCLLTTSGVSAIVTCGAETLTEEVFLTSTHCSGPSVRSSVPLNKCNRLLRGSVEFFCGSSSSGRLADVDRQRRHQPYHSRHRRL
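Purified cruzain (1.5 nM final) was preincubated with compounds for 15 min at room temperature in 100 mM sodium acetate pH 5.5, 5 mM DTT, 0.01% Triton X-100. Reaction started with 2 uM Z-FR-AMC; AMC fluorescence change over 60 s gave activity.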
Cruzain noTriton: qHTS Assay for Promiscuous and Specific Inhibitors of Cruzain (without detergent); Cruzipain (Trypanosoma cruzi), P25779; purified cruzain, Z-FR-AMC fluorescence, no detergent; Potency, µM, for the others: max response, negative = inhibition, usual class: inhibitors; actives 2.3% (n = 200,000);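 note: plate controls were enzyme without inhibitor for no effect and buffer without enzyme for full effect; nearly all actives have a fitted effect of over 40% in size; top concentration of the series not given in the record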
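Detergent-free condition (0.00005% Triton X-100) in acetate buffer pH 5.5 with DTT. 1.5 nM enzyme and compound were pre-mixed 15 min, then 2 uM Z-FR-AMC substrate added; reaction progress from fluorescence change between first and third reads (60 s).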
LASV entry inh: qHTS for Inhibitors of binding or entry into cells for Lassa Virus | Lassa virus pseudotype entry inhibition, cell reporter; control for the full effect not named in the record | Potency, µM (series often up to 37.9 µM), for inactives: at the highest dose activity change, negative = inhibition, most hits filed as inhibitors | actives 1.2% (n = 300,000) | AID 540256, 2011; active means well fitted inhibition curve with a large enough effect; inconclusive means small, poorly fitted or top-dose-only effect, or effect the other way; inactive means flat fitted curve, though single readings scatter; tested in HEK293 cells; note: % is set by controls: 0 for no effect and ±100 for the full control effect; nearly all actives have a fitted effect of over 50% in size; luciferase read-out
SARS PLP yeast: qHTS of Yeast-based Assay for SARS-CoV PLP; actives 0.19% (n = 330,000); S. cerevisiae expressing SARS-CoV PLpro, growth rescue; control for the full effect not named in the record; Potency, µM (series often up to 32.9 µM), inactives show at the top dose activity, positive = growth rescue; active means well fitted rising curve with a large enough effect; inconclusive means small, poorly fitted or top-dose-only effect; inactive means no such curve, though single readings can be large or run the other way; note: 0% is about no effect; nearly all actives have a fitted effect of over 55% in size; growth read by luminescence after 48 h
2A StopGo: High Throughput Screening for Foot and Mouth Disease Virus Antivirals | human cells with a luciferase reporter of 2A StopGo recoding; control for the full effect not named in the record | Potency, µM (series often up to 57.9 µM), for the others: at the top dose signal change, negative = less light | actives 1.2% (n = 410,000) | AID 1159524, 2015; active = well fitted falling curve with a large enough effect; inconclusive = small, poorly fitted or top-dose-only effect; inactive = no such curve, though single readings can be large or run the other way; tested in HEK293T cells; note: % is set by controls: 0 for no effect and ±100 for the full control effect; nearly all actives have a fitted effect of over 45% in size; luciferase light after 4 h
MARV entry inh: qHTS for inhibitors of binding or entry into cells for Marburg Virus. Marburg virus pseudotyped entry inhibition, cell reporter; control for the full effect not named in the record; about a third of the inactives were read at about 46 µM. Potency, µM (titrated, usually from 37.8 µM), for inactives: at the highest dose activity change, negative = inhibition, most hits filed as inhibitors. actives 1.8% (n = 300,000). AID 540276, 2011; active = well fitted inhibition curve with a large enough effect; inconclusive = small, poorly fitted or top-dose-only effect, or effect the other way; inactive = flat fitted curve, though single readings scatter; tested in HEK293 cells; about a fifth of its hits are not listed in these tables; note: % is set by controls: 0 for no effect and ±100 for the full control effect; luciferase read-out
NS1 function inh: qHTS Assay for Inhibitors of Influenza NS1 Protein Function | S. cerevisiae slowed by influenza A NS1, growth recovery by OD600 | Potency, µM (highest dose often 46.1 µM), without a hit: top-dose activity, positive = more growth | actives 0.4% (n = 270,000) | AID 2326, 2010; active means well fitted rising curve with a large enough effect; inconclusive means small, poorly fitted or top-dose-only effect; inactive means no such curve, though single readings can be large or run the other way; note: nearly all actives have a fitted effect of over 50% in size
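A cell-based growth assay was used: compounds that relieve NS1-induced slow growth of budding yeast raise OD600. Assay medium was yeast nitrogen base with ammonium sulphate and -URA supplement, pH 6.0, with 2% galactose.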
Active calls of the source: *; ? = inconclusive; . = no result given; & = joins results of further samples; [ ] = remark or other dose. Unless noted, calls come from the whole dose curve; as a rule, active = well fitted curve in the direction sought with a large enough effect; inconclusive = small, poorly fitted or top-dose-only effect, or another doubt; inactive = no such curve, though single readings can be large; an effect the other way counts as inactive or inconclusive. Potency is the fitted concentration of half-maximal effect.

SMILES	RE007 growth inh	Cruzain inh Det	Cruzain noTriton	LASV entry inh	SARS PLP yeast	2A StopGo	MARV entry inh	NS1 function inh
O=c1cccc2n1CC1CC2CN(C(c2cccc(F)c2)c2sc3ncnn3c2O)C1 (stereo not drawn)	7%	1.0%	-8%	.	-1%	7%	.	6%
O=C(O)CC1(CC(=O)Nc2ccccc2N2CCOCC2)CCCC1	-10%	.	.	12%	0%	9%	-7%[46.1 µM]	3%
O=C(Nc1ccccc1F)NC1CCCCCCC1	7%	.	.	.	-9%	64%[activator]	.	-42%
CC(C)(C)C(=O)N1CCN(c2nc3ccccc3s2)CC1	-5%	.	.	.	-1%	16%	.	-2%
CCN(CC(=O)Nc1c(F)cccc1F)C(=O)c1ccc(S(=O)(=O)NCc2ccco2)cc1	-11%	.	.	-21%	2%	-14%	-7%	.
CCn1cnc2c(=O)oc3ccc(S(=O)(=O)N4CCN(c5cc(C)ccc5C)CC4)cc3c21	.	-1.2%	2%	20%[46.1 µM]	.	?	2%[46.1 µM]	.
COC(=O)c1ccc(C(=O)Nc2ccc3c(c2)C(=O)NC3=O)cc1	6%	.	.	14%[46.1 µM]	8%	-4%	2%[46.1 µM]	?
CC(O)C(NS(=O)(=O)c1ccc(Cl)cc1)C(=O)OCC(=O)c1c[nH]c2ccccc12 (stereo not drawn)	-7%	.	.	?	0%	16µM*	?	4%
CC(=NNC(=S)Nc1cccc(Cl)c1)c1ccccn1	?	.	.	1.1µM*	.	-9%	0.2µM*	.
COCCCNC(=O)c1oc2c(c1C)-c1nn(Cc3cccc(Cl)c3)cc1CC2	.	-8.0%	2%	-6%[46.1 µM]	.	-21%	.	.
COc1cc(C(=O)N(C)c2nnc(-c3cccnc3)s2)cc(OC)c1OC	.	1.3%	1%	.	0%	.	1%	-5%
Cc1cc(NCCCO)n2c(nc3ccccc32)c1C#N	-21%	-15%	32µM*	4%	-17%	5%	30%	18%
COc1cc(-c2nnc(SCC(=O)NCc3ccccc3Cl)o2)cc(OC)c1OC	.	-2.8%	-10%	?	.	?	7%[46.1 µM]	.
CCOC(=O)c1c(NC(=O)C2CCCCC2)sc2c1CCN(CC)C2	10%	.	.	.	-2%	-24%	.	4%
COC(=O)c1cccc(COC(=O)CNC(=O)c2ccco2)c1	1%[3.69 µM]	2.9%	4%	9%	3%	-6%	3%	-4%
CCN(CC)C(=O)c1sc2nc(-c3ccccc3)ccc2c1N	-13%	.	.	5%	-2%	0%	?	.
O=Cc1cc(N=Nc2ccccc2Cl)ccc1O	?	.	.	.	-6%	32%[activator]	.	-59%
Cc1c(NC(=O)C2CCCN2S(=O)(=O)c2ccc(Cl)cc2)c(=O)n(-c2ccccc2)n1C (stereo not drawn)	12%	3.4%	-3%	?	4%	.	0%&12%	-8%
Cc1c(C(=O)N/N=C/c2cccs2)nc2ccccn12	5%	-8.8%	-14%	17%	-12%	4%	?	3%
CCC(C)NS(=O)(=O)c1ccc(NC(=O)c2cccs2)cc1 (stereo not drawn)	4%	.	.	0%[46.1 µM]	1%	-5%	12%[46.1 µM]	1%
Cc1cc(C(=O)Nc2sc(C)c(-c3ccc(F)cc3)c2C(N)=O)no1	4%	0.4%	7%	?	7%	23%	?	5%
O=C(Nc1ccc2oc(Cc3ccc(Cl)cc3)nc2c1)c1cccnc1	-25%	-6.8%	29%	?	-15%	.	?	-57%
CC(C)(C)c1cc(CCC(=O)NCc2ccccn2)cc(C(C)(C)C)c1O	-12%	.	.	2%	-3%	-9%	-4%	-1%
CN(C)/C=N/c1c(C(=O)NCc2ccccc2)nnn1Cc1ccccc1	10%	-0.2%	-1%	6%	-5%	14%	13%	-2%
CNC(=O)Nc1cccc(-c2ccnc(C)n2)c1	-20%	.	.	13%	0%	29%	5%	4%
CSc1nc(N)n2nc(-c3ccccc3)cc2n1	-28%	.	.	-11%[46.1 µM]	-1%	0%	?	-3%
CCc1c(C(=O)NC2CCCCC2)[nH]c(C)c1C(C)=O	14%	3.6%	-2%	9%	-15%	60%[activator]	-27%	-28%
CC(=O)Nc1ccc(NC(=O)c2cc(-c3ccc(C)cc3O)n[nH]2)cc1	10%	.	.	.	1%	33%[activator]	.	9%
Cc1ccc(SCC(=O)OCC(=O)NC2CCCCCCC2)cc1	11%	.	.	-1%	-6%	0%	13%	.
COc1cccc(C(=O)NCCN2CCN(c3ccc(Cl)cc3)CC2)c1	-5%[18.4 µM]	-6.1%	8%	-34%	.	-26%	?	-7%
O=C(c1ccco1)N1CCN(C(=O)c2ccco2)C1=S	-9%	.	.	?	.	32µM*	?	.
COc1cnc(-c2ccccc2)nc1Oc1cccc(C)c1	?	-4.5%	-1%	2%	0%	?	-22%	-5%
Cc1ccc(NC(=O)Cn2cc(C(F)(F)F)cc(Cl)c2=O)cc1Cl	13%	.	.	-3%	0%	-5%	-12%[46.1 µM]	6%
COc1cc2[nH]c(C(=O)N3CCC(Cc4ccccc4)CC3)cc2c(OC)c1OC	1%	.	.	-23%[46.1 µM]	-6%	-15%	-26%[46.1 µM]	1%
CC1CC(=O)N(CC(=O)Nc2cccc(Cl)c2)c2ccccc2S1(=O)=O (stereo not drawn)	0%	.	.	.	-1%	-13%	.	14%
O=C(c1ccc(Cl)c(S(=O)(=O)N2CCCC2)c1)N1CCN(c2ccccn2)CC1	1%	-0.1%	-7%	2%	5%	?	14%	-8%
CC1CC(C)CN(S(=O)(=O)c2ccccc2[N+](=O)[O-])C1 (stereo not drawn)	-24%	-6.4%	-21%	2%	-3%	-10%	-13%	-11%
COc1ccccc1C(=O)Nc1ccccc1N1CCCCC1	-19%	.	.	0%[46.1 µM]	-3%	?	?	-44%
CC(=O)c1ccc(NS(=O)(=O)c2ccc(-c3cnc(C4CC4)o3)cc2)cc1	0%	-8.1%	-9%	?	0%	36%&43%[activator]	17%&17%[46.1 µM]	-1%
CNC(=O)C1=C(C)NC(=S)NC1c1cc2c(cc1OC)CCCC2 (stereo not drawn)	0%	-1.9%	12%	-3%	-17%	-6%	18%	-4%
COc1cc(-c2nc(-c3ccccc3)c(-c3cccs3)[nH]2)cc(OC)c1OC	-5%	-7.2%	?	-35%	-5%	0%	?	?
CN(C)S(=O)(=O)c1ccc(Cl)c(NC(=O)COC(=O)C2CCCO2)c1 (stereo not drawn)	2%	.	.	.	0%	-18%	.	2%
CCCCN(C)S(=O)(=O)c1ccc(C(=O)Nc2nnc(CSC)o2)cc1	58%	-2.3%	20%	?	-17%	-8%	?	-65%
C/C=C/c1ccc(OCCOc2cccc3cccnc23)c(OC)c1	-24%	-5.1%	?	22%	-25%	-12%	4%	-7%
Cc1ccc(C(=O)Nc2cccc(NC(=O)CN3CCCCC3)c2)cc1	-17%	.	.	-13%	-8%	31%[activator]	-15%	0%
CCSc1nnc(-c2ccc(S(=O)(=O)N3CCOCC3)cc2)n1C	25%	.	.	22%	7%	-14%	-8%[46.1 µM]	7%
CC(C)Cn1cc(C(=O)N2CCN(c3ccccn3)CC2)c2c3ccccc3n(C)c2c1=O	1%	-4.8%	?	6.5µM*	0%	18%	16µM*	-41%
O=C(Nc1ccc(F)c(F)c1)c1cccnc1	17%	4.2%	10%	15%	0%	-12%	2%	-4%
CS(=O)(=O)n1nc(-c2ccccc2)nc1NCc1ccco1	-6%	-7.7%	2%	25%	8%	2%	16%	17%
Cc1cc(C)c(C)c(OC(=O)c2sc(Cl)nc2C)c1	?	-6.1%	11%	?	-6%	-14%	-27%	-5%

Further results.
SMILES	RE007 growth inh	Cruzain inh Det	Cruzain noTriton	LASV entry inh	SARS PLP yeast	2A StopGo	MARV entry inh	NS1 function inh
COc1ccc(NC(=O)CCCCCN2C(=O)CCC2=O)cc1Cl	2%	3.7%	-4%	33%[14.3 µM]	-3%	16%	9%	-2%
CCOc1cccc(C2Nc3ccccc3-c3cc(C)nn32)c1O (stereo not drawn)	.	-10.0%	-28%	4%[46.1 µM]	.	-2%	?	.
CCCCOC(=O)c1ccc(NC(=O)CSc2nnnn2C)cc1	6%	.	.	18%	1%	18%	4%[46.1 µM]	1%
CC(=O)c1cccc(NC(=S)NC(=O)c2ccc(C)cc2Cl)c1	22%	.	.	.	-2%	-5%	.	-2%
O=C(Nc1cccc(-c2nnc(-c3ccco3)o2)c1)c1ccccc1	8%	.	.	-26%[46.1 µM]	-1%	-27%	?	.
Cc1ccc(CCNC(=O)CN(c2ccc(C(C)C)cc2)S(=O)(=O)c2c(C)nn(C)c2C)cc1	.	-3.2%	-20%	?	.	-21%	14%[46.1 µM]	.
Cc1cc(=O)oc2cc(O)cc(O)c12	0%	-0.7%	-9%	.	.	-18%	.	.
COc1ccc(NC(=O)c2ccc(OC(=S)N(C)c3ccc(OC)cc3)cc2)cc1	-5%	10%	-22%	-11%	-1%	-23%	?	-4%
COc1ccc2nc(NC(=O)CN(c3ccc(C)cc3)S(=O)(=O)c3c(C)nn(C)c3C)sc2c1	3%	-0.7%	?	?	-10%	-25%	?	?
O=C(NCCN1CCN(c2ccccc2F)CC1)c1ccc2nc3ccccc3c(=O)n2c1	-1%	.	.	.	1%	?	.	7%
Cc1cccc(NC(=O)c2cc(S(=O)(=O)N3CCc4ccccc43)ccc2F)c1C	.	-0.2%	?	12%[46.1 µM]	.	-8%	.	.
Cc1cc(C)cc(NC(=O)c2ncn(-c3ccccc3)n2)c1	.	-2.7%	-11%	24%[46.1 µM]	.	63%[activator]	-29%[46.1 µM]	.
Cn1c(=O)[nH]c(=O)c2c1nc(NC1CCCCC1)n2CC(=O)NC1CCCCC1	.	1.2%	-3%	.	2%	.	-3%	14%
CC(C)(C)NC(=O)CSCc1c(Cl)cccc1Cl	2%	-0.6%	0%	0%	6%	-2%	-8%	-13%

High-throughput results (PubChem BioAssay)
